# Assay outcomes: PubChem, Sanford-Burnham Center for Chemical Genomics
# HNF4A DNA FP: change in binding of human HNF4A to DNA, primary screen, biochemical, fluorescence polarization, FITC-DNA; Hepatocyte nuclear factor 4-alpha (Homo sapiens), P41235; 1 h; AID 1224865, 2016; activity change, % at 10 µM; actives 0.3% (n = 360,000); in the data active means activity change above about 30%, passing the limit was not always enough;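 further: controls were the assay level and a saturating level of protein; the project sought stronger binding though the title names inhibitors; some compounds called inactive have numbers as strong as hits; positive values seem to mean higher polarization but the record does not say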
# Target sequence (P41235 whole entry, looked up): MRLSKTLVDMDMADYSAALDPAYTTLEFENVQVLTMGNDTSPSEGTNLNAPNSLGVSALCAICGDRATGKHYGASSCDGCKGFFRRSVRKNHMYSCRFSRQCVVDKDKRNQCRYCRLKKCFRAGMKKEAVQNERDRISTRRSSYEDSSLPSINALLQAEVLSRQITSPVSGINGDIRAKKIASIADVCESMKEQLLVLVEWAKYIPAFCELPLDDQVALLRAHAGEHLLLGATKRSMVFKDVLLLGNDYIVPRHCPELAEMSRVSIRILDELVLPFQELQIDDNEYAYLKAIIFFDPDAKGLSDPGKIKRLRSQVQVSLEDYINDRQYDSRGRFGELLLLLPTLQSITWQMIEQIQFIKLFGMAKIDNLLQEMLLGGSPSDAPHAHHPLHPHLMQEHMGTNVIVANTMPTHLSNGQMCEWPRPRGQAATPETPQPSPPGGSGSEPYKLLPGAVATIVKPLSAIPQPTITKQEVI
# Starred values were filed as active, the others as inactive; & = joins results of further samples. Only part of the results is shown; the hit share may differ from the screen's.
SMILES,HNF4A DNA FP
CCCCC(=O)N(C)c1c(C)nc2ccc(C(=O)Nc3cccc(NS(C)(=O)=O)c3)cn12,-2.8
CC(=O)N(C(C)=O)c1ccc2c(c1)OCCO2,-5.7
O=C(NC(c1ccc(F)cc1)c1ccc2ccccc2n1)C1CCN(Cc2ccc(Oc3ccccc3)cc2)CC1 (stereo unspecified),-1.4
COc1cc(CN2C[C@@H](CO)O[C@@H](n3cnc4c(NCc5ccncc5)ncnc43)C2)cc(OC)c1OC,3.5
COc1cccc(C(=O)Nc2cc(C)on2)c1,-0.1
Cc1cccc(CN2CCN(C3CN(Cc4cn(Cc5ccc(F)cc5)nn4)S(=O)(=O)C3)CC2)c1 (stereo unspecified),-0.2
COC(=O)C1=CN(c2ccc(F)cc2)C(N)=C(C#N)C1c1cccc(F)c1 (stereo unspecified),0.0
O=c1cccc(-c2cccc3ccccc23)o1,1.1
COCOCCn1cc(CN2CCS(=O)(=O)N(Cc3ccc(-c4ccc(F)cc4)cc3)C(CC(C)C)C2=O)nn1 (stereo unspecified),-5.7
Cc1ccc(F)c(S(=O)(=O)NC(=O)C2(C)CCN2C(=O)c2ccc(C3CCCCC3)cc2)c1 (stereo unspecified),-1.6
Cc1ccc(F)c(S(=O)(=O)NC(=O)C2(C)CCN2C(=O)c2ccc(C(F)(F)F)nc2C)c1 (stereo unspecified),-1.7
CC[C@H](C)[C@@H](CO)NC(=O)[C@H]1O[C@@H](n2ccc(N)nc2=O)[C@H](O)[C@@H]1O,-3.3
COc1ccc(NC(=O)c2cc(-c3sc(NC(=O)c4ccccc4)nc3C)n(-c3ccc(Br)cc3)n2)cc1,-2.5
Cc1ccc2nc(-c3ccco3)c(Cc3cccc(Cl)c3)n2c1,7.5
Cn1nc(C(C)(C)C)cc1N1C(=O)CCC1(C)C(=O)NCc1ccccc1 (stereo unspecified),0.3
COCOCCn1cc(CN2CCS(=O)(=O)N(Cc3ccc(-c4ccncc4)cc3)C(CC(C)C)C2=O)nn1 (stereo unspecified),-5.4
CN(C)c1ccc(CC(=O)N2CCCC(c3cc(C(=O)Nc4ccccc4)no3)C2)cc1 (stereo unspecified),3.6
CCCCC(=O)N(C)c1c(C)nc2ccc(C(=O)NCCN(C)C)cn12,-2.2
CC(C)C[C@H]1COc2cc(N3CC[C@H](O)C3)ccc2S(=O)(=O)N1,-0.6
CC(C)(C(=O)N1CCC1(C)C(=O)NS(=O)(=O)c1ccc(Cl)s1)c1ccccc1 (stereo unspecified),-3.5
O=C(Nc1ccccc1F)c1ccc2sc([C@@H]3O[C@H](CO)[C@H](O)[C@H](O)[C@H]3O)nc2c1,-3.6
NC(Cc1ccc(C(F)(F)F)cc1)c1csc(Nc2cc(NCc3ccco3)ncn2)n1 (stereo unspecified),4.9
CC(C)C1C(=O)N(Cc2cn(CCC3OCCO3)nn2)CCS(=O)(=O)N1Cc1ccc(-c2ccc(Cl)cc2)cc1 (stereo unspecified),0.2
O=C(C=CC(=O)Nc1ccc(F)cc1F)Nc1ccc(F)cc1F,2.3

# Shown with bars between the fields: part of the list above
smiles | HNF4A DNA FP
CC(=O)N(C(C)=O)c1ccc2c(c1)OCCO2 | -5.7
O=C(NC(c1ccc(F)cc1)c1ccc2ccccc2n1)C1CCN(Cc2ccc(Oc3ccccc3)cc2)CC1 (stereo unspecified) | -1.4
COc1cc(CN2C[C@@H](CO)O[C@@H](n3cnc4c(NCc5ccncc5)ncnc43)C2)cc(OC)c1OC | 3.5

# The results go on.
SMILES,HNF4A DNA FP
COc1cc(CN2C[C@@H](CO)O[C@@H](n3cnc4c(NCc5ccc(F)cc5)ncnc43)C2)cc(OC)c1OC,-3.9
CCNC(=O)C1(C)CCN(C(=O)c2ccccc2OC)C1 (stereo unspecified),1.8
CCCCNC(=O)c1nc(C2CCN(S(=O)(=O)c3cccc(C(F)(F)F)c3)CC2)oc1-c1cccc(C(F)(F)F)c1,2.9
CCC(C(=O)Nc1c(C)cccc1C)n1c(-c2cc(C)cs2)nc2ccccc21 (stereo unspecified),3.5
CCOc1ccc(Cl)cc1-c1cc(C(=O)Nc2ccc(Br)cc2)[nH]n1,-0.6
COC(=O)c1ccc2nc(C3CCCCC3)c(Cc3ccccc3)n2c1,-1.8
CN(Cc1cnn(-c2ccc(F)cc2)c1)C(=O)[C@H]1O[C@@H](n2ccc(=O)[nH]c2=O)[C@H](O)[C@@H]1O,-3.0
CC(C)C(=O)N1CCC1(C)C(=O)Nc1ccc2cn[nH]c2c1 (stereo unspecified),-0.9
c1ccc(N2CCN(c3cccc(-c4cc5ccccc5s4)n3)CC2)nc1,2.8
COCn1ccnc1C(=O)c1ccco1,-6.3
O=C1c2ccccc2C(c2nnnn2Cc2ccccc2)N1Cc1cccc(F)c1 (stereo unspecified),-6.0&-1.8
CCCNC(=O)C1(C)CCCN(C(=O)c2cc(C)n(C(C)(C)C)n2)C1 (stereo unspecified),0.0

# A different layout for part of the listing above:
compound: CC(C)C(=O)N1CCC1(C)C(=O)Nc1ccc2cn[nH]c2c1 (stereo unspecified)
  HNF4A DNA FP = -0.9
compound: c1ccc(N2CCN(c3cccc(-c4cc5ccccc5s4)n3)CC2)nc1
  HNF4A DNA FP = 2.8
compound: COCn1ccnc1C(=O)c1ccco1
  HNF4A DNA FP = -6.3
compound: O=C1c2ccccc2C(c2nnnn2Cc2ccccc2)N1Cc1cccc(F)c1 (stereo unspecified)
  HNF4A DNA FP = -6.0&-1.8

# The results go on:
SMILES,HNF4A DNA FP
Cc1nc2sccn2c(=O)c1S(=O)(=O)N1CCN(c2ccccc2F)CC1,0.3
NC(=O)c1c(N)[nH]c(C(=O)c2ccccc2)c1-c1ccncc1,-3.6
CCOC(=O)[C@]12CCC=C1N(Cc1ccc3c(c1)OCO3)C(=O)[C@H](CC(=O)N1CCCC1)C2,-0.5
COc1ccc(-c2cc3nc(-c4ccccc4)cc(N4CCN(C(=O)c5ccoc5)CC4)n3n2)cc1,-1.0
O=C(NCc1cccnc1)c1cc(C2CCCCN2C(=O)CCc2ccccc2)on1 (stereo unspecified),-2.0
CC(C)N1CCCC(C)(C(=O)Nc2nc3ccccc3n2C)C1 (stereo unspecified),2.8
CCOC(=O)[C@]12CCC=C1N(Cc1cccc3ccccc13)C(=O)[C@H](CC(=O)NCC1CCCCC1)C2,5.4
CCCCn1nnnc1C1(C)CCC(=O)N1CCCn1ccnc1 (stereo unspecified),0.4
CCOc1ccc(CCN2C(=S)N([C@@H](Cc3ccc(O)cc3)CN3CCC[C@@H]3CN3C(=S)NC[C@@H]3Cc3ccccc3)C[C@@H]2Cc2ccc(O)cc2)cc1,1.1
O=C(Nc1cccc(S(=O)(=O)N2CCCC2)c1)[C@@H]1O[C@H](CO)[C@@H](O)[C@H]1O,-2.5
CCOC(=O)C1=CCN(S(=O)(=O)c2cccc(Cl)c2)C1c1ccc(C)cc1 (stereo unspecified),-3.8
CCOc1cc(OCC)cc(C(=O)N2CCC[C@H]2C(=O)N2CCC[C@H]2C(=O)NCc2ccccn2)c1,4.5
COc1ccccc1N=NNc1ccc(S(=O)(=O)NC(C)=O)cc1,1.8
C(CCN1CCOCC1)CN1CCOCC1,1.0
Cc1cc(C)n2nc(C(=O)OCC(=O)NC3CCS(=O)(=O)C3)nc2n1 (stereo unspecified),1.4
O=C(O)C1CCCN(C(=O)/C=C/c2ccccc2)CC1 (stereo unspecified),3.2
CCOc1cccc(-c2ccc3nncn3c2)c1,0.6
CC(C)NC(=O)C1C(c2ccc(C(F)(F)F)cc2)=Nc2ccccc2N1C(=O)c1cccc(C(F)(F)F)c1 (stereo unspecified),-1.3
CN1CCCC(C(=O)Nc2cccc(Cl)c2)CC1 (stereo unspecified),-5.5
CC1(C(=O)Nc2ccc3c(c2)OCCO3)CCN1C(=O)C1(c2ccc(Cl)cc2)CCC1 (stereo unspecified),0.4
Cc1ccc2ccccc2c1C(O)c1ncc(-c2ccc(F)cc2)[nH]1 (stereo unspecified),0.9
CCc1ccc([C@@H]2CC(=O)[C@@H]3CN(S(=O)(=O)c4ccccc4C)[C@H](c4ccc(Cl)cc4)C[C@@H]3N2S(=O)(=O)c2ccc(C)cc2)cc1,4.0
CCCCCCn1cc(CN2CC(N3CCCC3)CS2(=O)=O)nn1 (stereo unspecified),2.7
Cc1cc2nc(-c3ccc(Cl)cc3)c(CC3CCCCC3)n2c(C)c1Br,0.9

# The final 3 entries of the part before are carried over, then new ones follow:
SMILES,HNF4A DNA FP
CCc1ccc([C@@H]2CC(=O)[C@@H]3CN(S(=O)(=O)c4ccccc4C)[C@H](c4ccc(Cl)cc4)C[C@@H]3N2S(=O)(=O)c2ccc(C)cc2)cc1,4.0
CCCCCCn1cc(CN2CC(N3CCCC3)CS2(=O)=O)nn1 (stereo unspecified),2.7
Cc1cc2nc(-c3ccc(Cl)cc3)c(CC3CCCCC3)n2c(C)c1Br,0.9
CC(C)(C)c1ccc2cc(F)cc(F)c2n1,-1.1
COc1cccc(C(NC(C)=O)c2nc(-c3cc4ccccc4o3)cs2)c1 (stereo unspecified),0.2
C[C@@H]1CN([C@H](C)CO)C(=O)CCCn2cc(nn2)CO[C@H]1CN(C)C(=O)Nc1ccc(F)cc1,-3.1
CNc1nc(-c2ccccc2)c2sccc2n1,2.4
CN1CCn2cnc(C(=O)NCCCCCNC(=O)OC(C)(C)C)c2C1=O,1.6
CN[C@@H](CO)C(=O)NC[C@H]1O[C@@H](n2cnc3c(=O)[nH]c(N)nc32)[C@H](O)[C@@H]1O,1.3
CCOC(=O)C1CCN(C(=O)c2[nH]c(C(F)(F)F)nc2-c2ccccc2)CC1,-4.9
CC1(C(=O)Nc2ccccc2)Cc2c(-c3ccc4c(c3)OCO4)ccnc2O1 (stereo unspecified),-1.7
Cn1cc(-c2coc3c(C(=O)NCc4cccnc4)cccc23)cn1,-3.7
O=C(Nc1ccc(F)cc1)C(c1ccnc2ccccc12)N1CCN(C(=O)c2ccco2)CC1 (stereo unspecified),7.3
COc1cccc(CN2CCC2(C)C(=O)Nc2ccc3c(c2)OCO3)c1F (stereo unspecified),-0.7
COC(=O)C1(C(=O)OC)C[C@H](c2ccc(OC)cc2)N(Cc2ccccc2OC)[C@@H]1c1ccc(OC)cc1,-2.2
Cc1cccc(C)c1-n1nnnc1C1c2ccccc2C(=O)N1CCc1ccccc1F (stereo unspecified),2.3
CCO/C(C)=N/Oc1cnc2ccccc2c1,-4.5
Cc1ccc(S(=O)(=O)NC(=O)C2(C)CCN2C(=O)COc2ccc(Cl)cc2)nc1 (stereo unspecified),5.4
COc1ccc(C(O)c2ncc(-c3cccc(C(F)(F)F)c3)[nH]2)cc1 (stereo unspecified),0.6
Cc1ccc([C@H]2N[C@]3(CCCN(Cc4ccc(Br)cc4)C3=O)[C@H]3C(=O)N(Cc4ccccc4)C(=O)[C@@H]23)cc1,4.0
CCOC(=O)C1(C)CCCN(C(=O)c2cccc(C(F)(F)F)c2)C1 (stereo unspecified),1.7
CC1(C(=O)NS(=O)(=O)c2ccc3c(c2)CCO3)CCN1C(=O)Cc1ccc(-c2ccccc2)cc1 (stereo unspecified),0.9
COc1cc(NC(=O)c2ccc(-c3cccnc3)c3ccoc23)cc(OC)c1OC,2.9
CCOC(=O)[C@]12CCC=C1N(Cc1ccc3c(c1)OCO3)C(=O)[C@H](CC(=O)N1CCSCC1)C2,-7.0
COC(=O)[C@@]12C[C@@H](CC(=O)N3CCN(C(=O)C4CC4)CC3)C(=O)N(Cc3cccc4ccccc34)C1=CCC(C)(C)C2,0.9
COc1ccc(C(=O)C(=O)N2CCN(C(=O)OCc3ccccc3)CC2)cc1,0.5
COCCNC(=O)C1Cc2c(-c3cccc(NC(C)=O)c3)ccnc2O1 (stereo unspecified),-1.0
CC1(C(=O)NCc2ccccc2)CN(S(C)(=O)=O)CC(=O)N1CCc1ccccc1F (stereo unspecified),2.7
Cc1cccc(C)c1N1C(=O)c2ccccc2NC(=O)C1C(=O)NCC(C)C (stereo unspecified),2.0
COc1ccc(C(=O)C(=O)N2CCC(c3ccccc3)CC2)cn1,0.3
CC(C)C(C(=O)NC1CCCC1)N1CCN(c2ncccc2C#N)CC1 (stereo unspecified),-17.8
COc1cccc(-c2cc3nc(NCCCN(C)C)n(C)c(=O)c3s2)c1,3.9
CCCCOCCCNC(=O)C[C@@H]1C[C@@]2(C(=O)OC)CC(C)(C)CC=C2N(Cc2ccc3c(c2)OCO3)C1=O,-0.4
Clc1ccc(Cn2ncc3c(N4CCN(c5ccccc5)CC4)ncnc32)cc1,0.7
COc1cc(CNc2ncnc3c2ncn3[C@H]2CN(Cc3ccco3)C[C@@H](CO)O2)cc(OC)c1OC,0.0
CC1(C(=O)NCc2cccs2)CCN1C(=O)Cc1cccc2ccccc12 (stereo unspecified),1.0
O=C(c1cccc(Cl)c1)N1CCC(=O)N([C@H](COCc2ccccc2)Cc2ccccc2)CC1,-0.9
CC(C)c1ccc(NC(=O)N2CCc3nc(NCc4cccc(Oc5ccccc5)c4)ncc3C2)cc1,4.7
c1ccc2c(-c3cnc4cccnn34)cncc2c1,0.7
Cc1ccc(S(=O)(=O)N2C[C@H]3C(=O)C[C@@H](c4ccc(Cl)cc4)N(S(=O)(=O)c4ccc(C)cc4)[C@H]3C[C@H]2c2ccc(Cl)cc2)cc1,3.2
COCCNC(=O)C1CCCN(C(=O)c2cc(C)n(C(C)(C)C)n2)CC1 (stereo unspecified),2.3
COc1ccc(NC(=O)c2cc(C3CCCCN3C(=O)CCc3ccccc3)on2)c(C)c1 (stereo unspecified),2.8
CCOC(=O)C1=C(C)N=c2sc(=Cc3cc(Cl)c(OCC(=O)O)c(OC)c3)c(=O)n2C1c1ccccc1Cl (stereo unspecified),13.4
CN1CCN(C(=O)c2cc3c(c(-c4cccc(-c5cc6ccccc6o5)c4)n2)[C@H](CCO)N(S(=O)C(C)(C)C)C3)CC1 (stereo partly specified),2.5
Cc1ccc(S(=O)(=O)N2C[C@H]3C(=O)C[C@@H](c4ccccc4F)N(S(=O)(=O)c4ccc(C)cc4)[C@H]3C[C@H]2c2ccccc2)cc1,6.1
